Bioassay records: PubChem BioAssay, National Center for Advancing Translational Sciences (NCATS)
SmPrx2 inh – Schistosoma Mansoni Peroxiredoxins (Prx2); Schistosoma mansoni peroxiredoxin 2 (Prx2); S. mansoni Prx2 activity coupled to TGR/GSH (TGR is thioredoxin glutathione reductase), NADPH fluorescence loss, qHTS; some inactives read as strong as hits; Potency, µM; 65,000 compounds, 0.07% hits; AID 448, 2006; active means full or partial inhibition curve with a strong effect at the top dose; inconclusive means weaker partial or single-point curve; inactive means no accepted curve; also: series up to 57 µM; many of its hits are not listed in these tables
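Coupled assay in which S. mansoni TGR passes NADPH reducing equivalents via glutathione to Prx2, which reduces H2O2. Compounds were preincubated 15 min at room temperature with 25 nM TGR/50 nM Prx2 mix. Kinetic NADPH fluorescence loss (ex 365/em 450 nm) was monitored.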
Anthrax LT inh – qHTS Assay for Anthrax Lethal Toxin Internalization | 70,000 compounds, 0.67% hits | Potency, µM (titrated, usually from 40 µM), for inactives: at the highest dose activity change, negative = inhibition, usual class: inhibitors | Cells, anthrax lethal toxin internalization, FRET ratio (460/530); active = well fitted falling ratio curve with the 530 nm signal flat; inconclusive = other ratio curves, or a change in one channel alone; inactive = flat curves in the ratio and both channels; the % refers to the ratio; also: % is scaled to controls: 0 for no effect and ±100 for the full control effect; nearly all actives have a fitted effect of over 50% in size; tested in ME-180 cells; beta-lactamase reporter
Numbers without * were called inactive; ? = inconclusive; . = not tested or not shown; [ ] = dose if it differs, or a comment. Potency is read from the fitted curve at half-maximal effect.

SMILES	SmPrx2 inh	Anthrax LT inh
O=C(CSc1nnc(Cc2cc(=O)[nH]c(=O)[nH]2)n1-c1ccccc1)N1CCCCC1	>57	-2%
O=C1CCCc2sccc2N1	>57	-3%
CCOC(=O)C1CCN(C(=O)COc2ccc(S(=O)(=O)NC(C)(C)C)cc2)CC1	>57	16%
CC(NC(=O)c1cc2ccccc2o1)C(=O)O (centres undefined)	>57	?
CCC(C)(C)OC	.	1%
Cc1ccc(-c2cn3cccnc3n2)cc1NC(=O)c1ccc(Br)o1	>57	-7%
CCOC(=O)N1CCN(C(=O)CN(c2ccc(OCc3ccccc3)cc2)S(C)(=O)=O)CC1	.	-11%
CCOC(=O)N1CCC(NC(=O)CN2C(=O)C(CC)Oc3ccc(C)cc32)CC1 (centres undefined)	>57	.
Cc1cc(C)n2nc(SCC(=O)c3ccccc3)nc2n1	>57	2%
COc1ccccc1N1C(=O)N(C(C)=O)C2C1Nc1ccccc1N2C (centres undefined)	.	?
O=S(=O)(O)c1nc2ccccc2n1Cc1ccc(Cl)cc1	>57	-12%
Cc1ccc(OCc2nnc(SCC(=O)Nc3ccc4c(c3)OCO4)n2C)cc1	>57	-6%
O=C(O)CSc1ccc([N+](=O)[O-])cc1[N+](=O)[O-]	>57	?
N#CC1=C(SCc2ccccc2)NC(=O)CC1c1ccco1 (centres undefined)	>57	-22%
O=C(NCCCN1CCCC1=O)c1ccccc1NS(=O)(=O)c1ccc(F)cc1	>57	?
O=C(OCn1nnc2ccccc2c1=O)c1cccs1	>57	11%
Cc1ccc(CSc2nnc(-c3ccc(S(=O)(=O)N4CCCC4)cc3)o2)cc1	>57	-5%
COc1ccc(C(=O)Cn2nnc(-c3ccccc3-n3cnnn3)n2)cc1	>57	-5%
O=C(NCc1ccco1)c1csc(Nc2ccccc2Cl)n1	>57	?
Cc1ccc(C)c(NC(=O)C(Sc2nncn2C)c2ccccc2)c1 (centres undefined)	>57	6%
Cc1ccc(N)c(C(=O)CCCCC(=O)O)c1	>57	-7%
CCOC(=O)c1[nH]c2ccccc2c1NC(=O)c1ccc(Br)o1	>57	?
CCOc1ccc(NS(=O)(=O)c2ccc3[nH]cc(C(=O)N(CC)CC)c(=O)c3c2)cc1	>57	16%
CCn1c(SCc2ccccc2)nnc1-c1cccs1	>57	-4%
CN(C)/C=C(\C#N)c1nc2ccccc2[nH]1	>57	2%
COC(=O)c1c(=O)n(O)c2ccc(OC)cc2[n+]1[O-]	>57	5%
CCn1c(CSc2nc3ccccc3[nH]2)n[nH]c1=S	>57	-7%
Cn1c(CSCc2ccc(Cl)c(Cl)c2)nnc1SCC(=O)Nc1nccs1	>57	-19%
C=CCOc1ccccc1/C=c1\sc2nc(=O)c(C)nn2c1=O	>57	?
COC(=O)C1CCN(C(=O)Cc2ccc(OC)c(OC)c2)CC1	>57	4%
Cc1nc2ccccc2c2oc(C(=O)NCC3COc4ccccc4O3)cc12 (centres undefined)	>57	5µM*
Cc1nnc(SCC(=O)N2CCN(S(=O)(=O)c3ccccc3)CC2)[nH]c1=O	>57	-7%
Cc1ccc(-c2nc(CSCC(=O)NCCCN3CCOCC3)c(C)o2)cc1	>57	3%
CCOc1cc(CN2CCSCC2)ccc1O	.	-18%
CCC(=O)OCC(=O)[C@@]1(OC(=O)CC)[C@H](C)C[C@@H]2[C@H]3CCC4=CC(=O)C=C[C@]4(C)[C@]3(Cl)[C@@H](O)C[C@@]21C	>57	-8%[3.58 µM]
COc1ccc(S(=O)(=O)N2CCCCC2)cc1Br	>57	-5%
CCCCCc1nnc(NC(=O)CS(=O)(=O)Cc2ccccc2)s1	>57	?
O=C(NCc1ccco1)C(Cc1ccccc1)N1C(=O)c2ccccc2C1=O (centres undefined)	>57	0%
c1ccc(-c2nnc3sc(CN4CCC5(CC4)OCCO5)cn23)cc1	>57	8%
CCOC(=O)NCc1ccc(CNC(=O)OCC)cc1	>57	-16%
BrC/C=C/CBr	.	?
COc1cccc(/C=N/n2c(C)nc3ccccc32)c1OC	>57	-20%
Cc1cccc(CNc2cc(-c3ccccc3C)ncn2)c1	>57	7%
CCCc1c(C)c2ccc(OCC(C)=O)cc2oc1=O	>57	-15%
COc1ccc(OC)c(NC(=O)c2nnn(Cc3ccccc3C)c2N)c1	>57	-16%
NC(=O)NC(Cc1ccccc1)c1ccccc1 (centres undefined)	>57	-4%
CC(C)C(c1nnnn1Cc1ccc2c(c1)OCO2)N1CCN(c2ccccc2)CC1 (centres undefined)	>57	4%
CC(NC(N)=O)C12CC3CC(CC(C3)C1)C2 (centres undefined)	>57	.
CC(=O)c1c(C)[nH]c(C(=O)Nc2ccc3c(c2)OCCO3)c1C	>57	5%
CCSc1nnc(NC(=O)c2csc3c2CCCC3)s1	>57	4%
Cc1ccc(-c2cccc(NC(=O)C3C(C(=O)O)[C@@H]4C=C[C@H]3C4)c2)o1 (some centres undefined)	>57	-4%
CCn1cc2c(c1-c1cccc(C)c1)c(=O)n(C)c(=O)n2C	>57	12%
COc1ccc(CCNC(=O)CSc2nc(O)c(CC(C)C)c(=O)[nH]2)cc1OC	>57	0%
COc1cccc2c(=O)cc(C)n(CC(=O)Nc3ccc(C)c(C)c3)c12	>57	-3%
CC(=O)Nc1ccc2c(c1)nc(CCNC(=O)c1ccccc1)n2C	>57	-7%
COc1ccc(C(=O)CSc2nnc(-c3cc(C)cc(C)c3)o2)cc1	>57	-15%
CCOC(=O)c1c(CN2CCCCC2)oc2ccc(O)cc12	>57	?
CCCCn1c(/N=C/c2cc(OC)ccc2O)nc2ccccc21	>57	?
O=C1CC(N2CC=C(c3ccccc3)CC2)C(=O)N1c1ccc(F)cc1 (centres undefined)	>57	?
CC(Oc1ccc(O)cc1)(P(=O)(O)O)P(=O)(O)O	>57	-1%

Quoted from the results shown for reference:
SMILES	SmPrx2 inh	Anthrax LT inh
N#CC1=C(SCc2ccccc2)NC(=O)CC1c1ccco1 (centres undefined)	>57	-22%
O=C(NCCCN1CCCC1=O)c1ccccc1NS(=O)(=O)c1ccc(F)cc1	>57	?
O=C(OCn1nnc2ccccc2c1=O)c1cccs1	>57	11%
Cc1ccc(CSc2nnc(-c3ccc(S(=O)(=O)N4CCCC4)cc3)o2)cc1	>57	-5%
COc1ccc(C(=O)Cn2nnc(-c3ccccc3-n3cnnn3)n2)cc1	>57	-5%
O=C(NCc1ccco1)c1csc(Nc2ccccc2Cl)n1	>57	?
Cc1ccc(C)c(NC(=O)C(Sc2nncn2C)c2ccccc2)c1 (centres undefined)	>57	6%
Cc1ccc(N)c(C(=O)CCCCC(=O)O)c1	>57	-7%
CCOC(=O)c1[nH]c2ccccc2c1NC(=O)c1ccc(Br)o1	>57	?
CCOc1ccc(NS(=O)(=O)c2ccc3[nH]cc(C(=O)N(CC)CC)c(=O)c3c2)cc1	>57	16%
CCn1c(SCc2ccccc2)nnc1-c1cccs1	>57	-4%
CN(C)/C=C(\C#N)c1nc2ccccc2[nH]1	>57	2%
COC(=O)c1c(=O)n(O)c2ccc(OC)cc2[n+]1[O-]	>57	5%
CCn1c(CSc2nc3ccccc3[nH]2)n[nH]c1=S	>57	-7%
Cn1c(CSCc2ccc(Cl)c(Cl)c2)nnc1SCC(=O)Nc1nccs1	>57	-19%
C=CCOc1ccccc1/C=c1\sc2nc(=O)c(C)nn2c1=O	>57	?
COC(=O)C1CCN(C(=O)Cc2ccc(OC)c(OC)c2)CC1	>57	4%

Compound profiles, from the list above.
`COc1cccc2c(=O)cc(C)n(CC(=O)Nc3ccc(C)c(C)c3)c12` as listed: SmPrx2 inh = >57; Anthrax LT inh = -3%
`COc1ccc(C(=O)CSc2nnc(-c3cc(C)cc(C)c3)o2)cc1` as listed: SmPrx2 inh = >57; Anthrax LT inh = -15%

Other structures follow.
SMILES	SmPrx2 inh	Anthrax LT inh
O=C1OCc2cc(NC(=O)C3COc4ccccc4O3)ccc21 (centres undefined)	>57	-19%
CC(=O)NCc1cccc(CNC(C)=O)n1	>57	.
CCn1c(C2CC(=O)N(Cc3ccccc3)C2)nc2ccccc21 (centres undefined)	>57	-6%
O=C(COC(=O)C(O)c1ccccc1)NC12CC3CC(CC(C3)C1)C2 (centres undefined)	>57	-2%
N#CCCn1c(=O)c(-c2ccccc2)nc2cnc(N3CCOCC3)nc21	>57	?
O=C(CSc1ncc(-c2ccccc2)n1-c1ccccc1)NCc1ccco1	>57	-13%
Cc1cc(C)nc(NC(=O)CSc2ccccn2)n1	>57	2%
COCc1cc(C2C(C(=O)c3ccco3)=C(O)C(=O)N2CCOCCO)ccc1O (centres undefined)	.	0%
CC(C)C[C@@H](CC(=O)N[C@@H](CCC(=O)O)CC(=O)O)NC(=O)[C@@H]1CNCC[C@H]1NC(=O)C[C@@H](NC(=O)C[C@H](CO)NC(=O)[C@@H]1CCCC[C@H]1N)C(C)C	>57	-5%
CCOc1ccc(NC2c3ccccc3C(=O)N2Cc2ccco2)cc1 (centres undefined)	>57	-7%
Cc1cc(CNC(=O)[C@@H]2C[C@H]2[C@@H](NP(=O)(c2ccccc2)c2ccccc2)c2ccccc2)nn1C	>57	5%
C[N+](C)(C)[C@@H](C1=CCCC1=O)c1ccccc1	>57	?
O=C(Nc1ncc(Cc2ccccc2)s1)c1cccs1	>57	-9%
O=C(C1CCN(C2CC(=O)N(c3cccc(Cl)c3)C2=O)CC1)N1CCCCCC1 (centres undefined)	>57	14%
C=CCn1c(NC(=O)c2ccco2)c(S(=O)(=O)c2ccccc2)c2nc3ccccc3nc21	>57	?
CCc1ccc(CNC(=O)CN2C(=O)COc3ccccc32)cc1	>57	8%
Nc1nc(CSc2n[nH]c(-c3ccccc3)n2)nc(Nc2ccccc2)n1	>57	?
CC(=O)/C=C/c1ccccc1	.	-10%
Cc1nn(-c2ccccc2)c2nc(-c3ccncc3)cc(C(=O)NCc3ccco3)c12	>57	-1%
NC1CCCCC1N=Cc1c(O)n(CCc2ccc(F)cc2)c(=O)[nH]c1=O (centres undefined)	>57	.
CSc1nc2ccc(NC(=O)C3CC(=O)N(Cc4ccco4)C3)cc2s1 (centres undefined)	>57	-7%
O=C(NCc1ccccc1)C1CCN(S(=O)(=O)c2cccc3cccnc23)CC1	>57	4%
CCCCn1nnnc1SCC(=O)c1ccc(C)c(C)c1	>57	-13%
CCOC(=O)c1cccnc1SCc1cc(=O)n2ccccc2n1	>57	8%
CC(C)c1ccc(OCC(=O)N2CCN(C)CC2)c(Br)c1	>57	-21%
COc1ccc(OCC(=O)N2CCN(Cc3c[nH]c4ccccc34)CC2)cc1	>57	-3%
CC(C(=O)NCc1cccs1)n1cccc1 (centres undefined)	>57	-10%
Cc1cc(Br)c2c(c1)=C(c1sc(N3CCCCCC3)nc1O)C(=O)N=2	>57	-6%
COCCN1Cc2cccc(C(=O)NCc3ccccn3)c2C1=O	>57	4%
CCCCCCCCCCCCCCCCCC(=O)NCCc1ccc(O)c(O)c1	.	-7%
CCOc1ccccc1NC(=O)CSc1ncnc2c1oc1ccccc12	>57	-2%
CCN(CC)CCCCn1c(-c2ccccc2)nc2c(NCCOC)nc(C)nc21	.	-7%
Cc1ccccc1NS(=O)(=O)c1cc(S(C)(=O)=O)ccc1Cl	>57	?
COC(=O)[C@@]1(Cc2ccc(OC)cc2)[C@H]2c3cc(C(=O)N(C)C)n(Cc4ccc(S(C)(=O)=O)cc4)c3C[C@H]2CN1C(=O)c1ccccc1	>57	?
COC(=O)[C@H](C)NC(=O)C/C=C\[C@@H](C)CO	.	3%[0.32 µM]
c1ccc(N2CC[C@@]3(CCCNC3)C2)nc1	>57	?
Cc1ccnc(N2CCC(C(=O)Nc3ccc4c(c3)CCC4)CC2)n1	>57	-8%
COc1ccccc1NC(=O)C1(C)Cc2ccccc2C(=O)O1 (centres undefined)	>57	-1%
CCCCc1ccc(NC(=O)C2CCCO2)cc1 (centres undefined)	.	-9%
O=C1[C@@H]2CSCN2C(=O)CN1CCc1cccc(F)c1	>57	-2%
CNc1cc(C)nc(-n2nc(C)cc2C)n1	>57	3%
CC1CN(O)C2CCc3nonc3C12O (centres undefined)	>57	-13%
CC(C)CNC(=O)c1cc(-c2ccc(Cl)c(Cl)c2)on1	>57	6%
Cc1cccc(CNc2nc(-c3ccc4c(c3)OCO4)nc3ccccc23)c1	>57	?
O=C(CSc1nnnn1-c1ccc(Cl)cc1)NC(=O)Nc1ccc2c(c1)OCCO2	>57	-9%
COc1cccc(C2NC(=O)NC(C)=C2C(=O)Nc2ccccc2C)c1 (centres undefined)	.	-10%
CCOC(=O)N1CCN(C(=O)Nc2sc3nc4n(c(=O)c3c2C)CCC(C)CC4)CC1 (centres undefined)	>57	1%
O=C(CSc1nnc(CN2CCOCC2)n1-c1ccccc1)N1CCc2ccccc21	>57	-7%
CCOC(=O)C1CCCN(C(=O)CCC(=O)Nc2ccc3nc(N4CCOCC4)cc(C)c3c2)C1 (centres undefined)	>57	3%
CCCc1nc2oc3cc(OC)ccc3c(=O)c2c(=O)n1Cc1ccco1	>57	-25%
CN1CCN(C(=O)c2cc3c(s2)-c2ccccc2S(=O)(=O)C3)CC1	>57	-3%
CC(=O)Nc1cc2ccccc2oc1=O	>57	-5%[3.58 µM]
CCn1cc(Br)c(-c2nc3ccccc3c(=O)n2N)n1	>57	0%
CCOc1ccc(-c2nnn(CC(=O)NCc3ccc(OC)cc3)n2)cc1OCC	>57	-13%
CN1C(=O)C(Cc2c[nH]c3ccccc23)C(=O)N(C)C1=O	>57	5%

The list is partial; the hit share may differ from the screen's.
